# From PubChem
# Tgondii IFNg = inhibitors of Toxoplasma gondii growth with IFN-gamma. Toxoplasma gondii growth in IFN-gamma-treated host cells; hits give low values; reference of the scale not given here. activity change, negative = inhibition, %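 (about 20 µM by stock and volumes)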. actives 3.8% (n = 69,000). AID 1259416;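 active = below -70%; inconclusive = fit judged invalid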;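 also: host cells are HeLa cells infected with Toxoplasma gondii; parasite growth read as luciferase light; one replicate is shown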
# * marks the source's active call; other numbers are inactive results; i = inactive; ? = inconclusive; & = joins results of further samples; ! = a repeat was not active. Only part of the results is shown; the hit share may differ from the screen's.
SMILES,Tgondii IFNg
COc1cccc(CN2CC[C@H]3[C@@H](CO[C@H]3CC(=O)NC3CC3)C2)c1,-16.5
COc1cccc(CC2CN(C(=O)c3cc(=O)c4ccccc4[nH]3)CCO2)c1 (stereo not drawn),-46.9
CCn1c(C)nc2cc(S(=O)(=O)C(F)(F)F)ccc21,3.8
CS(=O)(=O)N1CCOCC2(CCN(Cc3nccs3)C2)C1 (stereo not drawn),2.2
CN(Cc1nc(N2CCCC2)ncc1-c1ccncc1)C(=O)Cc1cccc(F)c1,-19.3
O=C(C1CCOCC1)N1CC(=O)N2[C@@H](CO)[C@H](c3ccc(/C=C/c4ccccc4)cc3)[C@@H]2C1,-25.0
CCCS(=O)(=O)N1C[C@H](N(C)Cc2ccco2)C2OCCCC21 (stereo partly drawn),-4.7
COc1c(C(=O)O)sc(C(=O)O)c1OC,0.7
CC(C)(O)C#Cc1ccc([C@@H]2[C@@H](CO)N3CCCCN(S(C)(=O)=O)C[C@@H]23)cc1,16.7
CNC(=O)c1cccc(NCC(=O)NCCc2ccc(OC)c(OC)c2)c1,14.6
CN(C)C(=O)[C@H]1C[C@@H]2OCC[C@@H]2N(CCOCc2ccccc2)C1,-12.6
COc1ccc(-c2nc(N(CCCN3CCOCC3)Cc3ccco3)c3ccccc3n2)cc1,-16.9
COC1CCN(Cc2cn(Cc3ccccc3)nc2-c2cc3ccccc3o2)CC1,-65.6
NC(=O)c1cnc2n1CCN(C(=O)c1csc(-c3cccs3)n1)C2,-5.5
Cc1ncsc1CN1C[C@H]2CCCO[C@H]2[C@H](N(C)C(C)C)C1,-3.8
CC(=O)NCCNC(=O)CC1Nc2c3ccccc3nc(=S)n2C1=O (stereo not drawn),20.2
Cc1nc(OCC(=O)Nc2ccc(C(C)C)cc2)c2ccccc2n1,-8.8
Cc1cccc(-c2nc(C)c(CCNC(=O)C(=O)Nc3cccc(Cl)c3)s2)c1,-6.8
CCN(C(=O)c1ccc(=O)n(C)c1)C(C)Cc1ccc(OC)cc1 (stereo not drawn),4.8
COCC1CC2(CCN(C(=O)c3cnoc3)CC2)CN1c1ncccn1 (stereo not drawn),-3.4
CN(C)C(=O)CC1CC2(CCN(c3ncccn3)CC2)c2ccccc21 (stereo not drawn),-1.9
CCc1nc(C)cc(-c2cccc3cccnc23)n1,0.8
O=C(NCCc1csc(-c2cccc(F)c2)n1)c1ccccc1,-48.5
Cc1nnc([C@H]2CO[C@H]3CN(C(=O)c4cc(C)c(C)s4)C[C@H]32)o1,-2.8
C[C@]12C=CC(=O)C=C1CCC1C2[C@@H](O)C[C@@]2(C)C1CC[C@]2(O)C(=O)COC(=O)CCC(=O)O (stereo partly drawn),-0.1&1.0

# Among those listed so far, two have two or more sulfur atoms:
SMILES,Tgondii IFNg
CS(=O)(=O)N1CCOCC2(CCN(Cc3nccs3)C2)C1 (stereo not drawn),2.2
NC(=O)c1cnc2n1CCN(C(=O)c1csc(-c3cccs3)n1)C2,-5.5

# Additional results.
SMILES,Tgondii IFNg
CC(C)Oc1ccccc1-c1cccc2ccnn12,?
O=C(CC(C(=O)O)C1CCCO1)Nc1ccccc1 (stereo not drawn),9.6
O=S(=O)(c1cccs1)N1CCC2(CC1)NCCN=C2NCc1ccc(F)c(Cl)c1,15.3
c1ccc(Cn2cccn2)c(CN2CCC(N3CCSCC3)CC2)c1,-4.1
C[C@@H]1CN([C@H](C)CO)C(=O)CCCn2cc(nn2)CO[C@H]1CN(C)C(=O)Nc1cccc2ccccc12,277.5
O=C(C[C@H]1CC[C@H]2[C@@H](COC[C@@H](O)CN2S(=O)(=O)c2cccc(F)c2)O1)NCc1ccncn1,43.2
CCCOc1ccc(-c2noc(-c3c(O)c4ccccc4n(CC)c3=O)n2)cc1,84.2
COCC(c1ccccn1)N(C)Cc1cnc2c(-c3ccccc3)cnn2c1 (stereo not drawn),-1.1
CCCC(=O)Nc1ccc(-c2nc(-c3ccc(C)cc3C)co2)cc1,-22.2
Cc1[nH]c2c(C)ccc(C)c2c1CC(=O)NCCS(=O)(=O)N1CCCC1,10.2
O=C1CN(S(=O)(=O)c2cccc(F)c2)C[C@H]2[C@@H](c3ccc(C4=CCCC4)cc3)[C@@H](CO)N12,5.6
COCC(=O)N1CCC2(CCC2NS(=O)(=O)c2ccccc2)CC1 (stereo not drawn),-1.8
CC(=O)Nc1cccc(-c2cc(C(=O)NC3CC3)ccn2)c1,8.8
Cc1nc(-c2ccccc2)sc1CCNC(=O)C(=O)Nc1ccc2c(c1)OCCO2,2.1
Nc1nc(N)c2nc(-c3ccccc3)c(N)nc2n1,-7.1&-7.6
C[C@H]1CN([C@@H](C)CO)C(=O)c2cc(NC(=O)Cn3cnnn3)ccc2O[C@H]1CN(C)Cc1ccc(C(=O)Nc2ccccc2N)cc1,-51.6
O=c1cc(-c2ccccc2)oc2cc(O)c(O)c(O)c12,-77.2*!
Cc1ccc(C(=O)Nc2ccc3c(c2)CCC(=O)N3C)s1,29.1
CO[C@H]1CN(C)C(=O)c2ccc(NC(=O)Nc3ccccc3Cl)cc2OC[C@@H](C)NC[C@H]1C,-28.3
OCCNC(=S)NCc1ccccc1,-1.1
COc1ccccc1CNC(=O)CN1CCC(O)(c2ccc(F)cc2)CC1,-46.9
CO[C@@H]1CCN(C(=O)c2ccnn2C)C[C@@H]1Cc1ccccc1,302.8
CCCN(Cc1cccnc1)C(=O)c1ccc(Cl)cc1OC,-2.2
CSc1ccc(CNC(=O)c2ccc(-c3nc(CN4CCc5ccccc54)c(C)o3)cc2)cc1,17.6
O=C(O)c1cccn(Cc2ccccc2F)c1=O,-5.5

# The last 5 entries of the section above open the next one.
SMILES,Tgondii IFNg
COc1ccccc1CNC(=O)CN1CCC(O)(c2ccc(F)cc2)CC1,-46.9
CO[C@@H]1CCN(C(=O)c2ccnn2C)C[C@@H]1Cc1ccccc1,302.8
CCCN(Cc1cccnc1)C(=O)c1ccc(Cl)cc1OC,-2.2
CSc1ccc(CNC(=O)c2ccc(-c3nc(CN4CCc5ccccc54)c(C)o3)cc2)cc1,17.6
O=C(O)c1cccn(Cc2ccccc2F)c1=O,-5.5
OC[C@H]1[C@@H](c2ccc(Br)cc2)[C@H]2CNCCCCN21,2.0
COc1cccc(CN2CCN(Cc3ccc(OC)cc3F)CC2=O)c1,-7.6
Cc1ccc(N2CCCC3(CCN(C(=O)c4ccc(N(C)C)cc4)C3)C2)nn1 (stereo not drawn),12.9
O=S(=O)(c1ccc(Br)cc1)N1CCC2(CC1)Nc1cc(F)ccc1-n1cccc12,32.3
Cc1ccc(NC(=O)N2CCCC2C(=O)Nc2ccc3c(c2)OCO3)cc1 (stereo not drawn),-13.2
CC(=O)Oc1ccc(-c2csc(Nc3ncccn3)n2)cc1,208.2
O=C(O)C1Cc2c([nH]c3ccccc23)C(c2ccc(Cl)cc2Cl)N1 (stereo not drawn),5.3
COc1ccccc1CC(=O)N1CCC(c2cc(=O)[nH]c(C)n2)C1 (stereo not drawn),102.5
COc1ccc(OC)c(S(=O)(=O)Oc2ccccn2)c1,30.0
Cc1noc(C)c1S(=O)(=O)Nc1cccc2c1O[C@@H](CN(C)Cc1ccc(C(F)(F)F)cc1)[C@@H](C)CN([C@H](C)CO)C2=O,-29.5
Cc1ncc(CN2CCOC3(COCCN(C(=O)C(C)C)C3)C2)n1C (stereo not drawn),-7.1
O=C(NCc1ccc2c(c1)OCO2)Nc1ccc(Cl)c(Cl)c1,-39.4
CSc1ccc(NC(=O)N2CCCC(CCC(=O)NCc3ccccc3F)C2)cc1 (stereo not drawn),4.4
O=C1N(Cc2ccccc2)C(=O)C2(CCN(Cc3nccs3)CC2)N1CCc1ccccc1,-8.4
CCN1C(=O)CCC12CCN(c1ccc(C)nn1)CC2,23.3
CCOC(=O)C1CCN(c2ncc(F)c(N3CCOCC3)n2)CC1,52.0
Cc1nc(-c2ccccc2)nc2c1CCN(c1ncc(F)cn1)CC2,-12.7
Cc1ccc(-c2nc(C)c(CCNC(=O)c3cccc([N+](=O)[O-])c3)s2)cc1,i
CN1CCO[C@H]2CCN(C(=O)c3ccn(C)n3)C[C@H]21,121.0
Cc1cc(C)n(C2CCN(Cc3nc(-c4ccc(Cl)cc4)no3)C2)n1 (stereo not drawn),-46.7
O=C1CCC2C(CCN2Cc2cccs2)N1CCN1CCCC1 (stereo not drawn),-4.6
O=C(c1cccc(F)c1)N1CCc2ncc(Cn3cccn3)n2CC1,-54.7
C[C@@H]1CN([C@H](C)CO)C(=O)c2ccccc2-c2ccccc2CO[C@H]1CN(C)C(=O)[C@@H]1CCCN1C,-20.6
COc1ccc2c3c(n(C)c2c1)[C@@H](CO)N(Cc1ccccc1F)CC31CCN(C(=O)C2CCOCC2)CC1,15.1
NS(=O)(=O)c1ccc(CCN2Cc3ncccc3C2=O)cc1,-44.2
SMILES,Tgondii IFNg
CN1CCN(C(=O)C2CNCCN2C(=O)c2cc3ccccc3s2)CC1 (stereo not drawn),-2.4
Cn1cc(CN2CC[C@H]3C[C@@H](c4nccs4)O[C@H]3C2)cn1,76.9
Cc1nsc(NC(=O)N(C)CC2COc3ccccc3O2)n1 (stereo not drawn),102.8
O=c1[nH]nc(C(F)(F)F)n2cccc12,-103.8*
C=CCn1cc(CN2CCCC(c3nc(C(C)C)no3)C2)c(C)n1 (stereo not drawn),-23.8
COc1cccc(F)c1-c1cccc(-n2cnnc2)c1,2.7
CCN1CCN(c2c(Cl)cccc2NC(=O)C2CCCO2)CC1 (stereo not drawn),-21.0
O=S1OCC(COc2cccc3ccccc23)O1 (stereo not drawn),10.2
CCc1cnc(N2[C@H](C#N)[C@@H](c3ccc(C#Cc4ccccc4F)cc3)[C@H]2CO)s1,-74.6*
O=C(c1ccc[nH]1)N1CCCC(N2CCCC2=O)C1 (stereo not drawn),-1.5
O=C(C[C@H]1CC[C@H](NS(=O)(=O)c2ccccc2F)[C@@H](CO)O1)NCCCN1CCOCC1,19.1
CCOC(=O)CC1(NC(=O)c2cc(COc3c(F)cccc3F)on2)CCCCC1,-21.5
CC(=O)Nc1cccc(-c2cnn3cccnc23)c1,-49.9
FC(F)(F)c1cc(-c2ccc(-c3ccn[nH]3)o2)cc(C(F)(F)F)c1,-105.7*
O=c1[nH]nc(CSc2ccccn2)c2ccccc12,-5.1
O=C(O)C(Cc1cnc[nH]1)N1C(=O)c2ccc(F)cc2C1=O (stereo not drawn),-46.1
O=C(O)CCCCCN1C(=O)C(=O)/C(=C(/O)c2ccccc2)C1c1ccccc1 (stereo not drawn),-7.5
CC(C)c1ccc(S(=O)(=O)c2cnc(N3CCC(C(N)=O)(N4CCCCC4)CC3)nc2N)cc1,26.9
Cc1ccc(S(=O)(=O)N(C)c2cncc(C(=O)N3CCN(c4cccc(C)c4)C(C)C3)c2)cc1 (stereo not drawn),-45.4
CN1C[C@H]2[C@@H](c3ccccc31)[C@@H](CO)N2C(=O)C1CCOCC1,-8.2
Cc1cc(C)nc(/N=C2\NC(=O)CC(C(=O)O)N2c2ccc(Cl)cc2Cl)n1 (stereo not drawn),-19.1
COc1ccc2c(c1)NC1(CCN(C(=O)CCc3cc(OC)c(OC)c(OC)c3)CC1)c1cccn1-2,23.7
COc1cccc(CN2[C@@H]3CNC[C@H]2C3c2ccc(-c3ccc(C#N)cc3)cc2)c1 (stereo partly drawn),-13.1
Nc1cc(N)nc(SCc2noc(-c3ccc(Cl)cc3)n2)n1,227.7
C[C@@H](Cn1nnc2ccccc21)NC(=O)c1ccc2c(c1)OCCO2,375.3
SMILES,Tgondii IFNg
O=C(c1ccc(N2CCC(NCc3cc(C(F)(F)F)ccc3F)CC2)cc1)N1CCCC(CO)C1 (stereo not drawn),6.6
COc1ccc(NC(=O)N(C)C[C@H]2OCCCC[C@@H](C)Oc3ccc(NC(=O)c4ccncc4)cc3C(=O)N([C@H](C)CO)C[C@H]2C)cc1,331.1
CC(=O)Oc1ccccc1C(=O)O,23.7
COc1c(C[C@H](NC(C)=O)C(=O)O)cccc1OCC1CCCC1,21.0
CO[C@@H]1CCN(Cc2ccoc2)[C@H]1Cc1ccccc1,14.1
C[C@@H]1CN([C@@H](C)CO)C(=O)c2cc(NC(=O)Cn3cnnn3)ccc2O[C@@H]1CN(C)C(=O)Nc1ccc2c(c1)OCO2,6.0
COc1ccccc1C(=O)N1CCN(Cc2nc(-c3cccnc3Cl)no2)CC1,70.8
OCC1(Cc2cccc(C(F)(F)F)c2)CCN(c2ccc3ccccc3n2)CC1,0.0
Cc1cnccc1N1CCN(S(=O)(=O)NCc2ccccc2)CC1,-10.9
Cc1ccc(C(=O)N2CCCN(Cc3cccs3)CC2)c(=O)[nH]1,58.0
CSc1nsc(SCc2nc3ccccc3c(=O)[nH]2)n1,-15.3
O=C(NCc1ccncc1)C1CNCCN1C(=O)C1CCCCCC1 (stereo not drawn),2.0
Cc1cc(Cc2cccc(F)c2)cc(C2CCN(S(=O)(=O)c3ccccc3)C2)n1 (stereo not drawn),-68.3
COCC(=O)N1CC[C@@H]2[C@H](CO)Nc3ccc(C#Cc4ccc(F)cc4)cc3[C@@H]21,-19.4
O=C1NC2(Cc3ccccc3C2)Nc2ccccc21,-54.1
O=c1c(-c2ccc(O)cc2)coc2c(C3OC(CO)C(O)C(O)C3O)c(O)ccc12 (stereo not drawn),-2.4
CC(C)c1ccc(C(=O)NCCOc2ccc(C(=O)O)cc2)cc1,71.2
O=C(NCC(c1cccnc1)c1c[nH]c2ccccc12)Nc1cccc(F)c1 (stereo not drawn),151.9
Cc1nc2c(c(N3CCN(c4cccc(Cl)c4Cl)CC3)n1)CNC2,35.8
CCn1c(C2CCCN(Cc3cn[nH]c3C3CCCCC3)C2)n[nH]c1=O (stereo not drawn),0.9
COCC(=O)N1CCOCC2(CCN(Cc3nccs3)C2)C1 (stereo not drawn),-38.7
c1ccc(NCc2cn3c(n2)CN(Cc2ccoc2)CC3)nc1,-53.8

# 4 entries from above, ordered by SMILES length, rising.
SMILES,Tgondii IFNg
CC(=O)Oc1ccccc1C(=O)O,23.7
COc1c(C[C@H](NC(C)=O)C(=O)O)cccc1OCC1CCCC1,21.0
Cc1cc(Cc2cccc(F)c2)cc(C2CCN(S(=O)(=O)c3ccccc3)C2)n1 (stereo not drawn),-68.3
O=C(c1ccc(N2CCC(NCc3cc(C(F)(F)F)ccc3F)CC2)cc1)N1CCCC(CO)C1 (stereo not drawn),6.6
